Screens from PubChem.
Vaccinia inh: Vaccinia orthopox stage-specific inhibition | Vaccinia-infected cells, mCherry/Venus stage reporter fluorescence; hits give low values; some inactives read as strong as hits | activity change (mCherry), % (concentration not given with the values) | 0.01% of 89,000 active;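 active = mCherry past -33% and 40 or more points under the early reporter, replicates agreeing; inconclusive = past -33% without that gap or agreement; tested in A549 cells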;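 note: scaled between vehicle wells and reference inhibitor wells; 23 nL library stock went into each well; one replicate is shown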
Vaccinia inh Venus: recorded beside Vaccinia inh, whose call it bears; activity change (Venus), %; measured here: Venus reporter, other viral stage;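 negative = less Venus signal; first of two replicates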
The depositor's hits bear a star; u = inconclusive; x = not tested or not shown.

SMILES	Vaccinia inh	Vaccinia inh Venus
CCC(=O)N1[C@H](CO)[C@H](c2ccccc2)C12CN(C(=O)c1ccc3c(c1)OCO3)C2	4	-1
C[C@@H]1CCCCO[C@@H](CN(C)S(=O)(=O)c2cn(C)cn2)[C@H](C)CN([C@@H](C)CO)C(=O)c2cc(NC(=O)CCCN(C)C)ccc2O1	17	7
O=C(c1ccc(F)cc1)N1CC(=O)N2[C@@H](CO)[C@H](c3ccc(C#CC4CCCC4)cc3)[C@@H]2C1	-23	-16
C[C@H](CO)N1C[C@H](C)[C@@H](CN(C)Cc2ccccc2)Oc2ncc(/C=C/c3ccccc3)cc2C1=O	-18	-18
CCC(=O)Nc1ccc2c(c1)C(=O)N(C)[C@@H]1CC[C@@H](CC(=O)NCC3CCCCC3)O[C@@H]1CO2	-5	-2
CCS(=O)(=O)Nc1ccc2c(c1)C(=O)N(C)[C@@H]1CC[C@H](CC(=O)NCCCN3CCOCC3)O[C@@H]1CO2	-4	-5
C[C@@H]1CN([C@@H](C)CO)C(=O)c2c(c3ccccc3n2C)-c2ccccc2CO[C@H]1CN(C)Cc1cccc(C(=O)Nc2ccccc2N)c1	-1	9
COc1ccc2c3c(n(C)c2c1)[C@@H](CO)N(C(=O)CC1CC1)CC31CCN(C(=O)NC(C)C)CC1	3	3
C/C=C/CN(C(=O)C#Cc1ccccc1)[C@H](CO[Si](C)(C)C(C)(C)C)c1ccccc1	-9	-5
C[C@@H]1CN([C@@H](C)CO)C(=O)c2cc(NC(=O)c3ccncc3)ccc2O[C@@H](C)CCCCO[C@@H]1CN(C)C(=O)Nc1ccccc1	20	0
CC(C)c1cn(CC[C@H]2CC[C@H](NC(=O)C3CCC3)[C@@H](CO)O2)nn1	-1	1
COCC(=O)N1CC2(CCN(Cc3ccccc3Cl)CC2)c2c([nH]c3cc(OC)ccc23)[C@@H]1CO	u	x
C[C@@H]1CN([C@H](C)CO)C(=O)c2cccc(NC(=O)CCCCCC(=O)Nc3ccccc3N)c2O[C@@H]1CN(C)Cc1ccncc1	28	14
CCNC(=O)C[C@@H]1CC[C@@H]2[C@H](COC[C@@H](O)CN2C(=O)c2ccccn2)O1	12	4
CO[C@@H]1CC[C@@H]2CCOc3c(C#N)cccc3C(=O)N(C)CC3(CCCCC3)CC(=O)N(C)C[C@H]1O2	7	5
O=C(N[C@@H]1CC[C@@H](CCNS(=O)(=O)c2ccc(Cl)cc2)O[C@@H]1CO)c1cccnc1	24	15
CNC(=O)C[C@H]1CC[C@@H]2[C@@H](COc3ccc(NC(=O)c4ccccc4OC)cc3C(=O)N2C)O1	-1	2
COc1ccc(CN(C)C[C@@H]2Oc3ccc(NC(=O)C4CCCCC4)cc3C(=O)N([C@H](C)CO)C[C@@H]2C)cc1	-19	-18
C[C@@H]1CCCCO[C@H](CN(C)S(=O)(=O)c2ccccc2)[C@@H](C)CN([C@@H](C)CO)C(=O)c2cc(NC(=O)C3CCCCC3)ccc2O1	-20	-12
C[C@@H]1CCCCO[C@@H](CN(C)Cc2ccc(Cl)c(Cl)c2)[C@H](C)CN([C@@H](C)CO)C(=O)c2cc(NS(=O)(=O)c3ccccc3)ccc2O1	u	x

Compounds shown so far containing a halogen (4):
SMILES	Vaccinia inh	Vaccinia inh Venus
O=C(c1ccc(F)cc1)N1CC(=O)N2[C@@H](CO)[C@H](c3ccc(C#CC4CCCC4)cc3)[C@@H]2C1	-23	-16
COCC(=O)N1CC2(CCN(Cc3ccccc3Cl)CC2)c2c([nH]c3cc(OC)ccc23)[C@@H]1CO	u	x
O=C(N[C@@H]1CC[C@@H](CCNS(=O)(=O)c2ccc(Cl)cc2)O[C@@H]1CO)c1cccnc1	24	15
C[C@@H]1CCCCO[C@@H](CN(C)Cc2ccc(Cl)c(Cl)c2)[C@H](C)CN([C@@H](C)CO)C(=O)c2cc(NS(=O)(=O)c3ccccc3)ccc2O1	u	x

Further compounds follow:
SMILES	Vaccinia inh	Vaccinia inh Venus
Cc1noc(C)c1NC(=O)N(C)C[C@@H]1Oc2ccc(NC(=O)C3CCCCC3)cc2CC(=O)N([C@@H](C)CO)C[C@H]1C	4	1
Cc1ccc(S(=O)(=O)N(C)C[C@H]2OCCCC[C@H](C)Oc3ccc(NC(=O)Nc4ccc5c(c4)OCO5)cc3C(=O)N([C@H](C)CO)C[C@H]2C)cc1	4	-2
C[C@@H]1CCCCO[C@H](CN(C)C(=O)Nc2ccc(C(F)(F)F)cc2)[C@H](C)CN([C@H](C)CO)C(=O)c2cc(NC(=O)Nc3ccc(F)cc3)ccc2O1	4	14
C[C@H]1CN([C@@H](C)CO)S(=O)(=O)c2ccc(-c3cccc(C#N)c3)cc2O[C@H]1CN(C)C(=O)Nc1cc(F)ccc1F	3	-8
CC(C)NC(=O)N(C)C[C@@H]1Oc2c(NC(=O)Nc3ccc(F)cc3)cccc2C(=O)N([C@H](C)CO)C[C@H]1C	6	-2
CS(=O)(=O)N1[C@H](CO)[C@@H](c2ccc(C#CC3CCCC3)cc2)[C@@H]1C#N	-6	6
Cc1noc(C)c1NC(=O)Nc1ccc2c(c1)C(=O)N([C@@H](C)CO)C[C@@H](C)[C@H](CN(C)Cc1ccc(C(F)(F)F)cc1)O2	10	15
COc1ccc(NC(=O)Nc2ccc3c(c2)C(=O)N([C@H](C)CO)C[C@@H](C)[C@H](CN(C)C(=O)Nc2c(C)noc2C)O3)cc1	12	6
CCCNC(=O)C[C@@H]1CC[C@H]2[C@@H](COC[C@@H](O)CN2C(=O)Nc2ccccc2OC)O1	4	5
O=C1CNC[C@@H]2[C@@H](c3ccc(C4=CCCC4)cc3)[C@H](CO)N12	7	1
CC(C)NC(=O)N(C)C[C@H]1Oc2cc(-c3ccccc3F)ccc2S(=O)(=O)N([C@@H](C)CO)C[C@H]1C	-16	-14
CO[C@@H]1CN(C)C(=O)c2cc(NS(=O)(=O)c3ccccc3C)ccc2OC[C@@H](C)N(S(C)(=O)=O)C[C@H]1C	14	11
C[C@@H]1CN([C@@H](C)CO)C(=O)c2cc(NC(=O)NC3CCCCC3)ccc2O[C@@H](C)CCCCO[C@H]1CN(C)S(=O)(=O)c1ccc(F)cc1	2	-5
C[C@@H]1CN([C@@H](C)CO)C(=O)c2cc(NC(=O)Cc3cn(C)c4ccccc34)ccc2O[C@H]1CN(C)Cc1ccc2c(c1)OCO2	-24	-21
C[C@H]1CN([C@@H](C)CO)C(=O)c2cccc(NC(=O)Nc3ccc(C(F)(F)F)cc3)c2O[C@H]1CN(C)S(=O)(=O)c1ccc(Cl)cc1	-21	-12
C[C@H]1CN([C@@H](C)CO)C(=O)Cc2cc(NS(=O)(=O)c3cn(C)cn3)ccc2O[C@H]1CN(C)Cc1ccc(C(=O)O)cc1	13	8
CCCC(=O)Nc1ccc2c(c1)OC[C@H](C)N(Cc1ccccn1)C[C@@H](C)[C@H](OC)CN(C)C2=O	-9	-6
C[C@@H]1CN([C@@H](C)CO)S(=O)(=O)c2ccc(-c3ccccc3F)cc2O[C@@H]1CN(C)C(=O)C1CC1	-14	-4
CCC(=O)N1CC[C@@H]2[C@@H](CO)Nc3ccc(C#Cc4ccc(F)cc4)cc3[C@@H]21	5	-2
COc1ccccc1CNC(=O)C[C@@H]1C[C@H]2c3cc(N(C)C)ccc3O[C@H]2[C@H](CO)O1	2	9

As entered above:
In Vaccinia inh, C[C@@H]1CN([C@@H](C)CO)C(=O)c2cc(NC(=O)Cc3cn(C)c4ccccc34)ccc2O[C@H]1CN(C)Cc1ccc2c(c1)OCO2 has -24
In Vaccinia inh Venus, CO[C@@H]1CN(C)C(=O)c2cc(NS(=O)(=O)c3ccccc3C)ccc2OC[C@@H](C)N(S(C)(=O)=O)C[C@H]1C has 11
In Vaccinia inh, C[C@@H]1CN([C@@H](C)CO)S(=O)(=O)c2ccc(-c3ccccc3F)cc2O[C@@H]1CN(C)C(=O)C1CC1 has -14
In Vaccinia inh, CS(=O)(=O)N1[C@H](CO)[C@@H](c2ccc(C#CC3CCCC3)cc2)[C@@H]1C#N has -6
In Vaccinia inh, O=C1CNC[C@@H]2[C@@H](c3ccc(C4=CCCC4)cc3)[C@H](CO)N12 has 7
In Vaccinia inh, COc1ccc(NC(=O)Nc2ccc3c(c2)C(=O)N([C@H](C)CO)C[C@@H](C)[C@H](CN(C)C(=O)Nc2c(C)noc2C)O3)cc1 has 12
In Vaccinia inh, CCCNC(=O)C[C@@H]1CC[C@H]2[C@@H](COC[C@@H](O)CN2C(=O)Nc2ccccc2OC)O1 has 4

Additional records
SMILES	Vaccinia inh	Vaccinia inh Venus
CO[C@H]1CN(C)C(=O)c2ccc(NC(=O)c3cnccn3)cc2OC[C@@H](C)N(C(C)=O)C[C@@H]1C	4	3
Cc1ccc(S(=O)(=O)Nc2ccc3c(c2)CC(=O)N([C@@H](C)CO)C[C@H](C)[C@@H](CN(C)C(=O)Nc2ccc(F)cc2)O3)cc1	8	3
CCCNC(=O)C[C@@H]1C[C@H]2c3cc(NC(=O)c4ccc5c(c4)OCO5)ccc3O[C@H]2[C@@H](CO)O1	14	8
Cc1ccc(S(=O)(=O)N(C)C[C@@H]2OCCCC[C@@H](C)Oc3ccc(NC(=O)Nc4ccccc4)cc3C(=O)N([C@@H](C)CO)C[C@H]2C)cc1	-25	-5
CO[C@H]1CC[C@@H]2CCOc3ccc(C#N)cc3C(=O)N(C)[C@@H](C)C(=O)N(C)C[C@H]1O2	24	13
C[C@@H]1CN([C@H](C)CO)C(=O)c2cc(NS(=O)(=O)c3ccc(Cl)cc3)ccc2O[C@@H](C)CCCCO[C@@H]1CN(C)C(=O)CCCN(C)C	40	27
CCCN(C)C[C@H]1Oc2ncc(Br)cc2C(=O)N([C@@H](C)CO)C[C@H]1C	6	11
CO[C@H]1CN(C)C(=O)c2cc(NC(C)=O)ccc2OC[C@@H](C)N(S(=O)(=O)c2cn(C)cn2)C[C@@H]1C	14	6
C[C@H]1CN([C@@H](C)CO)C(=O)Cc2cc(NC(=O)c3ccncc3)ccc2O[C@H]1CN(C)Cc1ccc(C(=O)Nc2ccccc2N)cc1	4	1
C[C@@H]1CN([C@H](C)CO)S(=O)(=O)c2ccc(C#CCN(C)C)cc2O[C@H]1CN(C)C(=O)C1CCC1	7	11
COc1ccc(NC(=O)N[C@H]2CC[C@H](CCNS(=O)(=O)c3cccc(Cl)c3)O[C@H]2CO)cc1	1	3
CN1c2ccc(Br)cc2[C@@H]2[C@@H](CCN2C(=O)Nc2cc(F)ccc2F)[C@@H]1CO	-11	-17
C[C@H](CO)N1C[C@H](C)[C@@H](CN(C)S(=O)(=O)c2cn(C)cn2)Oc2ccc(NS(=O)(=O)c3cn(C)cn3)cc2C1=O	14	14
C[C@H]1CN([C@@H](C)CO)C(=O)Cc2cc(NC(=O)C3CCCCC3)ccc2O[C@@H]1CN(C)S(=O)(=O)c1ccccc1	1	-1
C[C@@H]1CN([C@H](C)CO)C(=O)c2cccc(NC(=O)C3CCOCC3)c2O[C@@H]1CN(C)Cc1ccc(-c2ccccc2)cc1	2	8
O=C(C[C@H]1CC[C@H]2[C@@H](COC[C@H](O)CN2Cc2cccc(C(F)(F)F)c2)O1)NCc1ccc(Cl)cc1	-20	-21
CC(C)C#Cc1cnc2c(c1)C(=O)N([C@@H](C)CO)C[C@@H](C)[C@@H](CN(C)S(=O)(=O)c1cn(C)cn1)O2	11	6
COCC(=O)N1CC(=O)N2[C@H](CO)[C@@H](c3ccc(C#CC4CCCCC4)cc3)[C@H]2C1	-8	-13
C[C@@H]1CN([C@H](C)CO)C(=O)c2cc(NC(=O)Nc3ccccc3)ccc2O[C@@H](C)CCCCO[C@@H]1CN(C)Cc1ccncc1	11	-1
CCCC(=O)Nc1ccc2c(c1)C(=O)N(C)C[C@H](OC)[C@@H](C)CN(Cc1cncnc1)[C@H](C)CO2	19	13
CCCNC(=O)N(C)C[C@H]1Oc2ncc(C3=CCCC3)cc2C(=O)N([C@@H](C)CO)C[C@H]1C	2	10
O=C(c1ccccc1)N1Cc2ccccc2[C@H]2OC(c3ccc(OCCCO)cc3)=N[C@@]2(Cc2ccccc2)C1=O	u	x
O=C(Nc1cc(F)ccc1F)N1CC(=O)N2[C@H](C1)[C@@H](c1ccc(-c3cccnc3)cc1)[C@@H]2CO	7	7
C[C@@H]1CCCCO[C@H](CN(C)C(=O)c2ccncc2)[C@H](C)CN([C@H](C)CO)C(=O)c2cc(NC(=O)c3ccncc3)ccc2O1	21	4
C[C@@H]1CN([C@H](C)CO)C(=O)c2cc(-c3ccncc3)cnc2O[C@H]1CN(C)C(=O)Nc1ccc2c(c1)OCO2	2	2
CCC(=O)N(C)C[C@H]1Oc2cc(C#CC(C)C)ccc2S(=O)(=O)N([C@@H](C)CO)C[C@H]1C	-9	-8
CO[C@H](CN(C)Cc1cc(F)ccc1F)[C@@H](C)CN(C(=O)Nc1ccc(F)cc1)[C@@H](C)CO	-1	-2
O=C(CN1CCOCC1)NCC[C@H]1CC[C@@H](NS(=O)(=O)c2ccc(F)cc2)[C@@H](CO)O1	-1	5
C[C@@H]1CN([C@H](C)CO)C(=O)c2cc(NC(=O)C3CC3)ccc2O[C@H]1CN(C)S(C)(=O)=O	16	-5
CN(C)C(=O)C[C@H]1CC[C@@H]2[C@H](COc3ccc(NC(=O)c4cnccn4)cc3C(=O)N2C)O1	3	-1
C[C@@H](NC(=O)C[C@@H]1CC[C@@H]2[C@H](COC[C@@H](O)CN2C(=O)Nc2ccccc2)O1)c1ccccc1	-4	-9
C[C@@H]1CN([C@@H](C)CO)C(=O)CCCn2cc(nn2)CO[C@H]1CN(C)Cc1ccc(C(F)(F)F)cc1	4	13
CC(=O)N1[C@H](C(=O)NCc2ccccc2Cl)[C@@H](CO)[C@@H]2Cn3c(ccc(-c4cccnc4)c3=O)[C@@H]21	11	7
COc1ccc(NC(=O)N2CC3(C2)CN(C(=O)CN2CCOCC2)[C@H](CO)c2[nH]c4cc(OC)ccc4c23)cc1	12	6

Only part of the results is shown; count on the stated rates, not on these rows.
